MT1-MMP promoter = MT1-MMP gene expression reporter suppression – cell-based, luciferase reporter, luminescence (AID 618); MT1-MMP promoter luciferase reporter cells, luminescence; calls from a first round at 10 µM; hits with a dose series show EC50 in µM; hit rate 0.62% among 87,000;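 active = over half of the reporter light lost at 10 µM or EC50 under 50 µM; inactive = the rest and hits that failed the dose series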;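 note: actives suppress MT1-MMP promoter-driven transcription so potencies describe inhibitors; HT1080 fibrosarcoma cells; overnight exposure; toxic or luciferase-blocking compounds were not removed from the actives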
Hsc70 = Hsc70 inhibitors, probe displacement, primary screen, biochemical, fluorescence polarization (AID 568); Hsc70 fluorescence polarization, probe displacement; higher % means a stronger effect; strong numbers were not always called active; displacement, % at 20 µM; hits with a dose series show IC50 in µM; 83,000 tested, under 10 active;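 active = displacement above 50% without optical interference and an IC50 on retest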;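 note: ATPase domain with a fluorescein-tagged ATP probe; 0% = vehicle and 100% = excess ADP; read after one hour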
WNV protease inh = inhibitors of West Nile virus NS2B-NS3 protease | z-score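 (tested at a level between 10 and 100 µM)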 | P06935 | WNV NS2B-NS3 protease, fluorogenic substrate Ex360/Em465; active compounds read low | hit rate 0.18% among 65,000;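 active = z-score at -3 or under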;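 note: score is relative to mean and spread of the compound wells of a plate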
Target sequence (P06935 1371-1501 limits assumed): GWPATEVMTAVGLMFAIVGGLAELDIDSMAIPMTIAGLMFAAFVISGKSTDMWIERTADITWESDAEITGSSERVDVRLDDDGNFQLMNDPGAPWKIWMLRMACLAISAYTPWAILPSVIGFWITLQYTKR
Target sequence (P06935 1502-1679 limits assumed): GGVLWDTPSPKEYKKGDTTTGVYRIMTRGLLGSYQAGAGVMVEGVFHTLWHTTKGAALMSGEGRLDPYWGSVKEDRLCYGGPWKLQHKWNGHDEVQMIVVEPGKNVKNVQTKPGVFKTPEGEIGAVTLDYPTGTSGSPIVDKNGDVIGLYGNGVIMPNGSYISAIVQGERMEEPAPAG
* = called active by the depositor; i = inactive; · = no result given. This is a subset; the hit share may differ from the screen's.

Order of values – MT1-MMP promoter, Hsc70, WNV protease inh
> Cn1cnnc1SCC(=O)Nc1ccc2nc(SCc3ccccc3Cl)sc2c1
→ i, -6.5%, ·
> COc1ccc(Cl)cc1C(=O)Nc1ccccc1N1CCN(C)CC1
→ i, -11.9%, 0.42
> COc1ccc(N2C(=O)C3CCCN3C2c2ccc(F)cc2)cc1Cl (stereo not given)
→ i, -4.2%, -0.67
> O=C(O)CCSc1nnnn1-c1ccccc1
→ i, -10.8%, 1.28
> COCc1nc2ccccc2n1Cc1ccccc1Br
→ i, -3.5%, -0.4
> COc1cc(S(=O)(=O)Nc2ncccc2C)c(OC)cc1Cl
→ i, 1.0%, 1.05
> O=C(Nc1ccc(OC(F)(F)F)cc1)c1cnc2n(c1=O)CCS2
→ i, 3.8%, 0.42
> CCOC(=O)Nc1cc(C)ccc1OC
→ i, 5.9%, -0.5
> S=C(c1ccc(-c2ccccc2Cl)o1)N1CCOCC1
→ i, 0.2%, 0.51
> COc1ccc(C(=O)CSc2nccc(=O)[nH]2)cc1
→ i, 2.2%, -0.13
> COc1ccc(NC(=O)C2C(=O)N(C)C3(C)CC2c2ccccc2O3)cc1 (stereo not given)
→ i, 1.4%, -0.98
> CCCCCCC(C)n1[nH]c(=O)c2c(C)cc(=O)[nH]c21 (stereo not given)
→ i, 1.2%, 0.08
> Cc1ccc(-c2nnc3n2CCCCC3)cc1
→ i, -3.2%, ·
> O=C1CC(SCc2nc3ccccc3[nH]2)C(=O)N1c1cccc(F)c1 (stereo not given)
→ i, -1.5%, -0.09
> CCN(CCCNC(=O)CCc1nc(-c2ccc(C)cc2)no1)c1cccc(C)c1
→ i, 4.5%, -1.03
> N#Cc1c(NC(=O)c2cc(C3CC3)on2)sc2c1CCC2
→ i, 0.7%, -1.11
> O=C(C1CCCCC1)N1CCN(c2ccccc2F)CC1
→ i, 2.0%, 1.68
> CCOc1nc(N2CCCCC2)nc(-n2cc(-c3ccccc3)nn2)n1
→ i, -0.2%, ·
> COc1cc(S(=O)(=O)Nc2cccnc2)ccc1F
→ i, -4.2%, -0.75
> Cc1nc(-c2cccc(S(=O)(=O)N3CCCCCC3)c2)cs1
→ i, 1.6%, ·

Reprinted at random: seven records from the list, in no set order.
Order of values – MT1-MMP promoter, Hsc70, WNV protease inh
> CCN(CCCNC(=O)CCc1nc(-c2ccc(C)cc2)no1)c1cccc(C)c1
→ i, 4.5%, -1.03
> COc1cc(S(=O)(=O)Nc2cccnc2)ccc1F
→ i, -4.2%, -0.75
> O=C(O)CCSc1nnnn1-c1ccccc1
→ i, -10.8%, 1.28
> O=C(Nc1ccc(OC(F)(F)F)cc1)c1cnc2n(c1=O)CCS2
→ i, 3.8%, 0.42
> S=C(c1ccc(-c2ccccc2Cl)o1)N1CCOCC1
→ i, 0.2%, 0.51
> CCCCCCC(C)n1[nH]c(=O)c2c(C)cc(=O)[nH]c21 (stereo not given)
→ i, 1.2%, 0.08
> Cc1nc(-c2cccc(S(=O)(=O)N3CCCCCC3)c2)cs1
→ i, 1.6%, ·

(further entries)
Order of values – MT1-MMP promoter, Hsc70, WNV protease inh
> CCOCCn1c(C(C)O)nc2ccccc21 (stereo not given)
→ i, 3.4%, ·
> CCC(=O)NC(Nc1nc2ccc(C)cc2s1)(C(=O)OC)C(F)(F)F (stereo not given)
→ i, 0.5%, ·
> O=c1cc(N2CCc3ccccc3C2)[nH]c(=O)n1C1CCCCC1
→ i, -3.0%, 1.07
> O=C(NC1CCCCC1)C1CCN(S(=O)(=O)N2CCCCCC2)CC1
→ i, 0.3%, 1.41
> Cc1cc(C)n(C(=O)CCC2COc3ccccc3O2)n1 (stereo not given)
→ i, 5.9%, -0.24
> Cc1cc(-c2ccccc2)nc(N2CCC(C(=O)NCC3CCCCC3)CC2)n1
→ i, 2.3%, ·
> CC(=O)OCC1OC(n2ccc3ccccc32)C(OC(C)=O)C(OC(C)=O)C1OC(C)=O (stereo not given)
→ i, 3.3%, ·
> c1ccc(Nc2ccc3c4c(cccc24)CC3)cc1
→ i, -4.7%, ·
> Cc1cc(C(=O)Nc2cnn(Cc3ccc(Cl)cc3Cl)c2)no1
→ i, 0.9%, -0.8
> COC(=O)c1ccc(OCC(=O)c2ccc(O)cc2O)cc1
→ i, -3.7%, -1.04
> Cc1ccc(S(=O)(=O)N2CCCC2C(=O)Nc2nc3ccccc3s2)cc1 (stereo not given)
→ i, 9.2%, -0.88
> CCOC(=O)N1CCN(C(=O)c2ccc3c(SCC(=O)O)c4c(nc3c2)CCC4)CC1
→ i, 1.6%, -0.07
> CC(C)C(NC(=O)c1ccccc1NC(=O)c1ccco1)C(=O)O (stereo not given)
→ i, 2.1%, -0.64
> COc1cccc(NC(=O)CCP(C)(=O)O)c1
→ i, -4.6%, 0.13
> Cc1cc(=O)n2nc(N3CCC(C(=O)NCCc4ccccc4)CC3)sc2n1
→ i, -6.0%, -1.13
> CCN(Cc1ccccc1)C(=O)Cn1cnc2c1c(=O)n(C)c(=O)n2C
→ i, -7.6%, -0.36
> O=C(O)c1nc2ccccc2nc1C(=O)O
→ i, 2.9%, 0.52
> COc1cc2c(cc1OC)CN(C(=O)c1ccccc1C(=O)O)CC2
→ i, -0.2%, -1.1
> OC(CN1C2=NCCCN2c2ccccc21)c1ccc(Br)cc1 (stereo not given)
→ i, 4.6%, ·
> CC1(C)C(c2ccccc2)=NC(c2ccc(F)cc2)N1O (stereo not given)
→ i, -1.0%, 0.61

The list goes on:
Order of values – MT1-MMP promoter, Hsc70, WNV protease inh
> O=C(Nc1cccc(Br)c1)c1ccn[nH]1
→ i, -1.5%, 1.97
> COc1cccc(C(c2nnnn2CS(=O)(=O)c2ccc(C)cc2)N2CCN(C)CC2)c1OC (stereo not given)
→ i, -2.7%, 2.24
> Clc1cccc(-c2nnc(-c3ccccc3)o2)c1
→ 7.03µM*, -3.5%, 0.27
> Cn1c(NCCN2CCOCC2)nc2c1c(=O)n(Cc1cccc(Cl)c1)c(=O)n2C
→ i, -4.8%, -0.11
> CC1(C)CC(=O)C(C2NCCc3ccccc32)=C(O)C1 (stereo not given)
→ i, 2.7%, ·
> O=C(CCn1c(=O)[nH]c2ccccc2c1=O)NCCCN1CCN(c2cccc(Cl)c2)CC1
→ i, 4.7%, 0.63
> CCOC(=O)Cc1csc(NC(=O)CSc2nc(N)c3c(C)c(C)sc3n2)n1
→ i, -2.1%, ·
> CCOC(=O)c1c(CN2CCOCC2)n(-c2ccccc2)c2cc(Br)c(OC)cc12
→ i, 0.7%, ·
> O=S(=O)(c1ccc2c(c1)OCCO2)N(Cc1ccc(F)cc1)Cc1nnc(-c2cccs2)o1
→ i, 4.4%, -0.72
> Cc1ccc(NC(=O)C2CCN(S(=O)(=O)c3cnc[nH]3)CC2)nc1
→ i, -3.2%, 0.92
> CC(C)c1nc2ccccc2n1CCC(=O)O
→ i, -5.3%, ·
> O=C(Nc1ccc(Oc2ccc(NC(=O)c3ccco3)c(NC(=O)c3ccco3)c2)cc1)c1ccco1
→ i, -14.3%, 0.07
> CC1Cn2c(nnc2-c2ccc(F)cc2)S1 (stereo not given)
→ i, 2.0%, 0.42
> Cc1occc1-c1nnc(SCC(=O)N2CCN(c3ccccc3)CC2)n1C
→ i, -6.5%, -0.94
> C=CCn1c(=O)c2ccccc2n2c(SCC(=O)NCCc3ccccc3)nnc12
→ i, -4.0%, 0.76
> CCOC(=O)c1cc(NC(=O)N(CC)C2CCCCC2)c(C)nc1C
→ i, 2.5%, ·
> CC(C)OC(=O)C(C#N)c1nc2ccccc2nc1N1CCN(Cc2ccc3c(c2)OCO3)CC1 (stereo not given)
→ i, 64.1%, 0.39
> Cc1ccc(C(=O)NCCCCNC(=O)c2ccc(C)o2)o1
→ i, -0.1%, -0.62
> CCOC(=O)CSc1nc2ccc(NC(=O)CSc3nnnn3Cc3ccccc3)cc2s1
→ i, -13.1%, ·
> Cc1ccc(C(O)c2nccn2C)o1 (stereo not given)
→ i, -9.1%, 0.03

Continued.
Order of values – MT1-MMP promoter, Hsc70, WNV protease inh
> CC1(C)CC(=O)C2=C(C1)OC(N)=C(C#N)C2c1ccccc1OC(=O)N1CCOCC1 (stereo not given)
→ i, 2.4%, -1.27
> O=C(O)CSCC(=O)Nc1cc(C(F)(F)F)ccc1Cl
→ i, 4.1%, 0.34
> COc1cccc(NC(=O)N2CCN(c3cccc(C)c3C)CC2)c1
→ i, -6.1%, -0.69
> CCOc1nc(NCCc2ccc(OC)c(OC)c2)nc(NC(C)(C)CO)n1
→ i, 2.2%, -0.9
> O=C(CSc1nnc(C2COc3ccccc3O2)o1)Nc1nccs1 (stereo not given)
→ i, 1.9%, -0.18
> COc1ccc(C)cc1NC(=O)CSc1nnc(-c2ccccn2)n1Cc1ccco1
→ i, 0.8%, 1.4
> CCc1nc2ccccc2n1Cc1ccc(OC)c(OC)c1
→ i, 6.3%, -0.11
> O=C(CSCc1ccc(F)cc1)N1CCN(c2ccc(F)cc2)CC1
→ i, -0.2%, ·
> Cc1cc(NC(=O)CSc2nc(C(C)C)nc3sc4c(c23)CCCC4)no1
→ i, 4.7%, -0.04
> CCOC(=O)NC(=O)CSc1ccccn1
→ i, 1.1%, -0.24
> COc1ccc(OC)c2[nH]c(=O)c(CCNC(=O)C(C)C)cc12
→ i, -4.1%, 0.69
> Cc1ccc2nsnc2c1S(=O)(=O)N1CCN(C(=O)C2CCCO2)CC1 (stereo not given)
→ i, -2.8%, 1.74
> COc1cccc(NC(=O)c2ocnc2C)c1
→ i, 1.1%, 0.31
> O=C(CCc1nc2ccccc2[nH]1)Nc1ccc(F)cc1
→ i, -4.4%, -1.65
> Cc1cc2n(n1)SC(Nc1ccc(F)cc1)N2 (stereo not given)
→ i, -2.8%, ·
> O=C(CCNc1ccc(Cl)c(C(F)(F)F)c1)c1ccco1
→ i, -1.3%, 0.95
> CC(C)(C)C1(C)OC(C(N)=O)C(C(N)=O)O1 (stereo not given)
→ i, -5.6%, -0.53
> c1ccc(-c2ccc(C(c3ccccc3)n3ccnc3)cc2)cc1 (stereo not given)
→ i, -2.8%, 0.39
> O=C(Cc1cccs1)N1CCC(c2nc3c(nnn3Cc3ccccc3Cl)c(=O)[nH]2)CC1
→ i, -3.1%, 1.25
> CN(C)c1nc(N)nc(-c2cccnc2)n1
→ i, 0.0%, -0.03

The results go on.
Order of values – MT1-MMP promoter, Hsc70, WNV protease inh
> COc1ccc(CNC(=S)Nc2cccc(C)c2)cc1
→ i, 1.6%, ·
> CCN(CC)c1ccc(NC(=O)c2cnc3ccccn3c2=O)c(C)c1
→ i, -3.6%, -0.77
> OC(COc1ccc(Cl)c2ccccc12)CN1CCN(c2ccccn2)CC1 (stereo not given)
→ i, -5.8%, 1.97
> N#Cc1nc(-c2ccc(OCc3ccccc3)cc2)oc1NCCCn1ccnc1
→ i, -6.1%, -1.49
> CCOc1cccc(OCCOCCN2CCCC2)c1
→ i, 4.7%, -0.36
> CCOC(=O)c1c(NC(=O)c2ccoc2C)sc(C)c1C
→ i, 1.5%, ·
> COC(=O)C1CCN(C(=O)CSc2nnc(-c3ccncc3)o2)CC1
→ i, 2.0%, 2.13
> COCCN(CCOC)S(=O)(=O)c1ccc(C(=O)Nc2nc(-c3ccncc3)cs2)cc1
→ i, -7.9%, 0.09
> Cc1ccc(C)c(CN2C(=O)C3(OCCCO3)c3ccccc32)c1
→ i, 0.7%, -0.78
> CCS(=O)(=O)n1nc(-c2ccccc2)cc1N
→ i, 1.0%, -0.7
> CC12CC3(C)CC(C)(C1)CC(NC(=O)N1CCCC1)(C2)C3
→ i, 2.1%, ·
> N[C@@H](C(=O)N[C@@H]1C(=O)N2C(C(=O)O)=C(Cl)CS[C@H]12)c1ccccc1
→ i, -1.9%, -0.13
> O=C(c1cccs1)N(C(=O)c1cccs1)c1ccccn1
→ i, -1.3%, -0.34
> CCCCn1c(=O)n(C)c(=O)c2c(C(F)(F)F)cc(-c3ccncc3)nc21
→ i, 1.9%, 0.23
> O=C(O)c1ccccc1S(=O)(=O)c1ccccc1CO
→ i, -2.8%, -1.44
> CC(C)(C)c1ccc(S(=O)(=O)N2CCN(CCC#N)CC2)cc1
→ i, 4.1%, -0.04
> CC(C)NC(=O)CN1CCC(O)(c2ccccc2)CC1
→ i, -2.2%, 0.75
> CN(C)CCNC(=O)C(C(=O)c1ccc(F)cc1)n1ccccc1=O (stereo not given)
→ i, 4.7%, 0.82
> CCOC(=O)c1[nH]c(C)c(C(=O)c2cc(F)ccc2F)c1C
→ i, -1.6%, 0.59
> CCCCOC(=O)c1ccc(NC(=O)c2cnccn2)cc1
→ i, -2.6%, -0.36

(cont.)
Order of values – MT1-MMP promoter, Hsc70, WNV protease inh
> CCOC(=O)c1c(C)[nH]c(N=Nc2ccccc2C)c1C
→ i, 0.7%, ·
> Cc1ccc(-c2csc3ncnc(Sc4nnc(CN5CCCCCC5=O)o4)c23)cc1
→ 15µM*, -8.2%, 1.54
> CCc1nc2c(cnn2-c2ccc(Cl)cc2)c(=O)n1-c1ccc2c(c1)OCCO2
→ i, 1.0%, -0.32
> Cc1nc(NC(=O)CSc2nnnn2C)sc1C
→ i, -2.1%, ·
> Cc1cccc(-n2cnc(C(=O)N/N=C\c3ccc(Br)cc3)c2)n1
→ i, 4.5%, ·
> Cc1ccc(C(C)C)c(OCC(O)CN2CC(C)OC(C)C2)c1 (stereo not given)
→ i, -4.6%, 0.12
> CC1CCN(c2ccccc2N)CC1
→ i, -0.6%, 0.24
> CC1(C)Cc2c(sc(NC(=O)c3ccco3)c2C#N)CO1
→ i, -6.0%, -1.57
> CC(=O)c1cc2c(=O)c3ccccc3oc2nc1C
→ i, 0.8%, -0.02

Compound activity as filed in PubChem BioAssay.
